H5N1 antiviral – MDCK cell protection from H5N1 avian flu; inhibition, % at 50 µM; 0.07% of 96,000 active; cytopathic effect, luminescence, 72 h; active compounds read high; no value below 0 was filed and about half of the inactive calls have no number; reference of the scale not given here; in the data active = inhibition above about 25%
The depositor's hits bear a star. Not all compounds are listed, so the mix of outcomes need not match the whole.

How did CN(CCc1ccccn1)c1ncnc2[nH]ncc12 do in these assays?
H5N1 antiviral: 2.9

Results for Cc1ccc(-c2nc(N)n(C(=O)Cc3ccccc3)n2)cc1 ?
H5N1 antiviral: 3.3

How did CCN(CC)CCNC(=O)C12CC3CC(C)(CC(C)(C3)C1)C2 do in these assays?
H5N1 antiviral: inactive

How did O=C(O)CN1C(=O)CCS(=O)c2ccccc21 (stereo unspecified) do in these assays?
H5N1 antiviral: inactive

How did Cc1ccccc1OCC(=O)O/N=C(\N)Cc1ccc(Cl)cc1 do in these assays?
H5N1 antiviral: 0.1

What do the screens show for `CC(C)(C)OC(=O)NCC(=O)NCC(=O)OCc1ccccc1`?
H5N1 antiviral: inactive

Results for Cc1ccc(NC(=O)c2ccc(OC(=O)CCN3C(=O)c4ccccc4C3=O)cc2)cc1 ?
H5N1 antiviral: 1.5

Results for O=C1CCSc2cccc3cccc(c23)N1 ?
H5N1 antiviral: inactive

What do the screens show for `Cc1ccc(-c2nn(C)c(=O)c3ccccc23)cc1CNC(=O)c1ccco1`?
H5N1 antiviral: inactive

How did Brc1ccc(/C=N/N2CCN(C3c4ccccc4-c4ccccc43)CC2)s1 do in these assays?
H5N1 antiviral: inactive

Results for c1ccc(C2Nc3ccccc3-c3nc4ccccc4n32)nc1 (stereo unspecified) ?
H5N1 antiviral: inactive

What do the screens show for `CCC(C)NC(=O)c1cc(CC(C)C)on1` (stereo unspecified)?
H5N1 antiviral: 0.7

How did CCOc1ccc(CNc2ccc(N3CCOCC3)c(C(=O)O)c2)cc1 do in these assays?
H5N1 antiviral: inactive

What do the screens show for `Cn1cccc1/C=C1\CCC/C(=C\c2cccn2C)C1=O`?
H5N1 antiviral: 1.3

Results for CCn1ncc(C2=NOC(C(=O)Nc3ccc4c(c3)OCO4)C2)c1C (stereo unspecified) ?
H5N1 antiviral: 0.7

What do the screens show for `CCOC(=O)N1CCC2(CC1)C(C#N)=C(N)Oc1c2sc2nc(C)cc(C)c12`?
H5N1 antiviral: inactive

How did Cc1cc(C)n2nc(C(=O)NCc3ccccc3)nc2n1 do in these assays?
H5N1 antiviral: 0.5

What do the screens show for `CCOC(=O)C1=C(NC#N)OC(C)=C(C)C1c1ccc(O)cc1` (stereo unspecified)?
H5N1 antiviral: inactive

What do the screens show for `CCSc1nc2c(sc3nc(C)cc(C)c32)c(=O)[nH]1`?
H5N1 antiviral: 0.3

How did COC(=O)c1c(N)sc(C(=O)N2CCOCC2)c1C do in these assays?
H5N1 antiviral: 1.9

What do the screens show for `Cc1ccc(-c2nc(C)sc2CC(=O)NCc2ccco2)cc1`?
H5N1 antiviral: 1.5

Results for CCOc1ccccc1NC(=O)C(CC(C)C)NC(=O)C1CCC(C)CC1 (stereo unspecified) ?
H5N1 antiviral: inactive

Results for COc1ccc(OC)c(C2C(C(=O)Nc3ccccc3OC)=C(C)Nc3nc(CCCO)nn32)c1 (stereo unspecified) ?
H5N1 antiviral: inactive

How did CC1Cc2ccccc2N1C(=O)CCS(=O)(=O)c1cccs1 (stereo unspecified) do in these assays?
H5N1 antiviral: inactive

What do the screens show for `O=C1NCC(COCC2CC=CCC2)O1` (stereo unspecified)?
H5N1 antiviral: inactive

Results for COC(=O)C1C(=O)N2CCCSC2=C(C#N)C1c1cccs1 (stereo unspecified) ?
H5N1 antiviral: 0.1

Results for CCSC1=NC2(CCCCC2)Nc2sc3c(c21)CCCC3 ?
H5N1 antiviral: 1.0

What do the screens show for `O=c1[nH]n(CC2COC3(CCCCC3)O2)c(=O)c2ccccc12` (stereo unspecified)?
H5N1 antiviral: inactive

Results for COc1ccc(C2C3=C(N=C4SCC(=O)N42)c2ccccc2CC3)cc1OC (stereo unspecified) ?
H5N1 antiviral: 1.1

How did O=C(O)C1CCCN(S(=O)(=O)c2ccc(Cl)s2)C1 (stereo unspecified) do in these assays?
H5N1 antiviral: 0.7

How did CCOC(=O)C(Cc1cc(C(C)=O)ccc1OC(C)C)C(=O)OCC do in these assays?
H5N1 antiviral: 1.1

Results for COC(=O)CSc1nnc(-c2ccccc2OC)n1-c1ccc(C)cc1 ?
H5N1 antiviral: inactive

How did CC(C)NC(=O)/C(=C/c1ccco1)c1ccccc1 do in these assays?
H5N1 antiviral: 1.5

How did CCn1c(C)nc2cc(C(=O)NNS(=O)(=O)c3ccc(C)c(C)c3)ccc21 do in these assays?
H5N1 antiviral: 0.9

Results for CS(=O)(=O)N(Cc1ccccc1)c1ccccc1C(=O)Nc1ccccc1C(=O)NCc1ccco1 ?
H5N1 antiviral: 0.2

What do the screens show for `CCOC(=O)C1C(=O)NCC2CCCC21` (stereo unspecified)?
H5N1 antiviral: 0.1

Results for Oc1ccc2nc(Cc3ccccc3)[nH]c2c1 ?
H5N1 antiviral: inactive

Results for N=c1c2c(ncn1CCN1CCOCC1)Oc1ccc3ccccc3c1C2c1ccccc1 (stereo unspecified) ?
H5N1 antiviral: inactive

Results for O=C(CN(c1ccccc1)S(=O)(=O)c1ccccc1)N1CCN(Cc2ccc3c(c2)OCO3)CC1 ?
H5N1 antiviral: 0.1

What do the screens show for `CC1(C)CC(=O)C(C(c2ccco2)C2C(=O)CC(C)(C)CC2=O)C(=O)C1`?
H5N1 antiviral: 0.4

How did COC(=O)c1ccc(NC(=O)CSc2nnc(CNc3ccc(OC)cc3)n2C)cc1 do in these assays?
H5N1 antiviral: 0.4

What do the screens show for `CCC1(CC)C(=O)N(C)C(=O)NC1=Nc1ccc(OC)cc1`?
H5N1 antiviral: 1.3

Results for Cc1ccc(/C=N/n2cnc3sc(-c4ccccc4)cc3c2=O)o1 ?
H5N1 antiviral: 1.1

What do the screens show for `CCOc1ccc(OCc2ccc(C(=O)Nc3ccc(Cl)cn3)o2)cc1`?
H5N1 antiviral: 0.1

Results for O=C(O)c1cccc(S(=O)(=O)NCc2cccs2)c1 ?
H5N1 antiviral: inactive

Results for Cc1ccccc1CSCC(=O)NC(=O)NC(C)(C)C ?
H5N1 antiviral: inactive

How did Cc1cc(NC(=O)CSc2nc3ccccc3[nH]2)no1 do in these assays?
H5N1 antiviral: inactive

How did Cc1ccc(Cn2ccc(NC(=O)c3c(-c4ccccc4Cl)noc3C)n2)cc1 do in these assays?
H5N1 antiviral: 0.0

Results for Cn1c(Sc2ccccc2Cl)c(C=O)c2ccccc21 ?
H5N1 antiviral: inactive

Results for CCc1nnc(NC(=O)CSc2nnc(COc3ccccc3)n2Cc2ccccc2)s1 ?
H5N1 antiviral: 0.3

Results for CCCS(=O)(=O)NCc1cn2c(C)csc2n1 ?
H5N1 antiviral: 1.2

What do the screens show for `O=C(CSc1nc2c(c(=O)n1-c1ccc(Cl)cc1)SCC2)Nc1ccc2c(c1)OCCO2`?
H5N1 antiviral: inactive

What do the screens show for `Cn1nnc(NC(=O)c2ccco2)n1`?
H5N1 antiviral: inactive

Results for COc1ccccc1NC(=O)CSc1nnnn1Cc1ccccc1 ?
H5N1 antiviral: 0.2

What do the screens show for `Cc1cc(C(=O)NCc2ccccc2Br)no1`?
H5N1 antiviral: 0.7

How did O=C(c1ccccc1)N1CCN(CC(O)COCC2CC=CCC2)CC1 (stereo unspecified) do in these assays?
H5N1 antiviral: 0.3

How did Cc1cc(C)n(C/C=C/Cn2nc(C)cc2C)n1 do in these assays?
H5N1 antiviral: inactive

How did O=C(NCCCc1ccccc1)c1ccc(Br)o1 do in these assays?
H5N1 antiviral: 0.1

Results for O=C(CSc1nnc(-c2ccco2)n1-c1ccccc1)N1CCOCC1 ?
H5N1 antiviral: 0.3

Results for O=C(O)Cn1nc(-c2ccccc2)c2ccccc2c1=O ?
H5N1 antiviral: inactive

What do the screens show for `O=C(NCc1ccc2c(c1)OCO2)c1ccc(=O)[nH]c1`?
H5N1 antiviral: inactive

What do the screens show for `CCOC(=O)N1CCN(CC(=O)Nc2cc3c(cc2C(C)=O)OCO3)CC1`?
H5N1 antiviral: 0.2

Results for CCOC(=O)c1nc(N)c(C(=O)OCC)[nH]1 ?
H5N1 antiviral: 3.4

Results for O=C(Nn1cnnc1)c1ccncc1 ?
H5N1 antiviral: inactive

How did O=C(Nc1ccc2c(c1)CCC2)c1cnccn1 do in these assays?
H5N1 antiviral: inactive

How did COC(=O)Nc1ccc(OC)c(OC)c1 do in these assays?
H5N1 antiviral: 0.9

Results for CCC(C)(C)n1nnnc1C(c1ccccc1F)N1CCC(C(N)=O)CC1 (stereo unspecified) ?
H5N1 antiviral: 0.5

What do the screens show for `COC(=O)c1cc(=O)n(Cc2ccco2)c(=Nc2ccc(F)c(Cl)c2)s1`?
H5N1 antiviral: inactive

What do the screens show for `COc1ccccc1Oc1c(C)oc2c(CN3CCN(CCO)CC3)c(O)ccc2c1=O`?
H5N1 antiviral: 0.2

Results for CC(C)CNC(=O)c1cccc(C(=O)NCC(C)C)c1 ?
H5N1 antiviral: inactive

How did CC(C)NC(=O)c1ccccc1-c1ccccc1 do in these assays?
H5N1 antiviral: 0.4

What do the screens show for `CCC(C)NC(=O)COC(=O)c1cc([N+](=O)[O-])ccc1Sc1nc(C)cs1` (stereo unspecified)?
H5N1 antiviral: 0.1

How did Cc1cccc(/C(N)=N/OC(=O)c2ccco2)c1 do in these assays?
H5N1 antiviral: inactive

Results for Nc1cc(=O)[nH]c(SCC(=O)NCC2CCCO2)n1 (stereo unspecified) ?
H5N1 antiviral: inactive

Results for C=CCn1c(SCCC#N)nnc1-c1ccncc1 ?
H5N1 antiviral: inactive

How did c1ccc(N2CCN(c3cnccn3)CC2)nc1 do in these assays?
H5N1 antiviral: inactive

Results for Cc1ccc2[nH]c(-c3ccccc3)c(CN3CCN(C)CC3)c(=O)c2c1 ?
H5N1 antiviral: inactive

How did COc1ccc(C2SCC(=O)N2c2c(C)n(C)n(-c3ccccc3)c2=O)c(OC)c1 (stereo unspecified) do in these assays?
H5N1 antiviral: inactive

What do the screens show for `N#CCCN(C(=O)COC(=O)c1ccc2c(c1)NC(=O)CS2)c1ccc2c(c1)OCCO2`?
H5N1 antiviral: 0.6

Results for CCCCNC(=O)CS(=O)Cc1nc(-c2cccc(C)c2)oc1C (stereo unspecified) ?
H5N1 antiviral: 1.1

Results for CCC1Oc2ccccc2N(CC(=O)Nc2ccc(OC)cc2OC)C1=O (stereo unspecified) ?
H5N1 antiviral: inactive

What do the screens show for `CS(=O)(=O)N(Cc1ccc(Cl)cc1)c1ccc(C(=O)Nc2cccnc2)cc1`?
H5N1 antiviral: 0.1

What do the screens show for `COc1ccc(Cl)cc1C(=O)NCC(C)C`?
H5N1 antiviral: 0.4

Results for C#CCSc1nnc(CSc2nc3ccccc3s2)n1-c1ccccc1 ?
H5N1 antiviral: 0.8

Results for CCC(C)[C@H](NC(=O)N1CCCC1)C(=O)O (stereo partly specified) ?
H5N1 antiviral: inactive

Results for C=CCn1c(=O)c(C(=O)NCCNCC)c(O)c2ccccc21 ?
H5N1 antiviral: 0.9

Results for COc1ccc(CCNC(=S)Nc2cccc(C)c2)cc1 ?
H5N1 antiviral: inactive

Results for CCOC(=O)N1CCC(N2Cc3cccc(C(=O)Nc4ccc(OC)c(OC)c4)c3C2=O)CC1 ?
H5N1 antiviral: inactive

How did CCC(=O)N1c2ccccc2[C@@H](N(C(C)=O)c2ccccc2)C[C@H]1C do in these assays?
H5N1 antiviral: 19.2

Results for COCCNc1c(-c2ccc(O)cc2)nc2ccc(Cl)cn12 ?
H5N1 antiviral: 4.9

How did COc1cc2c(cc1OC)CN(C(=O)CCCN1C(=O)c3ccccc3C1=O)CC2 do in these assays?
H5N1 antiviral: 0.5

How did COc1ccccc1-n1nnnc1SCC(=O)Nc1ccccn1 do in these assays?
H5N1 antiviral: 0.9

Results for CN1C(=O)CSC1=NC12CC3CC(CC(C3)C1)C2 ?
H5N1 antiviral: 0.6

How did Cn1c(SC/C=C/c2ccccc2)nnc1-c1cnccn1 do in these assays?
H5N1 antiviral: 0.4

How did NC(=O)C1CCN(c2nc(-c3ccccc3)nc3c2oc2ccccc23)CC1 do in these assays?
H5N1 antiviral: inactive

Results for O=C(CCn1c(=O)c2sccc2n(Cc2cc(=O)n3ccccc3n2)c1=O)NCc1ccco1 ?
H5N1 antiviral: 2.4

Results for Cn1cc([N+](=O)[O-])c(C(=O)N/N=C/c2ccccc2)n1 ?
H5N1 antiviral: 0.5

Results for COC(=O)c1c(NC(=O)CN2CCN(c3ccccc3OC)CC2)c2c(C)cccc2n1C ?
H5N1 antiviral: 1.0

How did COc1ccc(S(=O)(=O)NNC(=O)c2csc(-n3nc(C)cc3C(F)(F)F)n2)cc1 do in these assays?
H5N1 antiviral: 0.6

Molecules from the list above that contain a Cl atom:
How did Cc1ccccc1OCC(=O)O/N=C(\N)Cc1ccc(Cl)cc1 do in these assays?
H5N1 antiviral: 0.1

How did O=C(O)C1CCCN(S(=O)(=O)c2ccc(Cl)s2)C1 (stereo unspecified) do in these assays?
H5N1 antiviral: 0.7

What do the screens show for `CCOc1ccc(OCc2ccc(C(=O)Nc3ccc(Cl)cn3)o2)cc1`?
H5N1 antiviral: 0.1

How did Cc1ccc(Cn2ccc(NC(=O)c3c(-c4ccccc4Cl)noc3C)n2)cc1 do in these assays?
H5N1 antiviral: 0.0

Results for Cn1c(Sc2ccccc2Cl)c(C=O)c2ccccc21 ?
H5N1 antiviral: inactive

What do the screens show for `O=C(CSc1nc2c(c(=O)n1-c1ccc(Cl)cc1)SCC2)Nc1ccc2c(c1)OCCO2`?
H5N1 antiviral: inactive

What do the screens show for `COC(=O)c1cc(=O)n(Cc2ccco2)c(=Nc2ccc(F)c(Cl)c2)s1`?
H5N1 antiviral: inactive

What do the screens show for `CS(=O)(=O)N(Cc1ccc(Cl)cc1)c1ccc(C(=O)Nc2cccnc2)cc1`?
H5N1 antiviral: 0.1

What do the screens show for `COc1ccc(Cl)cc1C(=O)NCC(C)C`?
H5N1 antiviral: 0.4

Results for COCCNc1c(-c2ccc(O)cc2)nc2ccc(Cl)cn12 ?
H5N1 antiviral: 4.9

Screening results from PubChem BioAssay.
